# Screens: PubChem BioAssay, several laboratories
# CSC inhib: blocks cancer stem cells | AID 2717 | 300,000 tested, 1.1% active | cancer stem cell-like cells viability, luminescence | inhibition, % at 7.5 µM;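 active means mean at 75% or more and at least half the replicates too; inconclusive means mean and replicates disagree; tested in HMLE shEcad cells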;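 further: 0% = median of negative and 100% = median of positive control wells; the first replicate is given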
# UUG fidelity: yeast start codon fidelity modulation. S. cerevisiae UUG-firefly luciferase reporter, luminescence/redox ratio. activity score, % at 18.7 µM. 350,000 tested, 0.13% active. AID 602363;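 active means replicate mean at a twofold rise or more, about +100% in these data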;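 further: firefly luciferase made from a UUG start codon reports start codon fidelity; reporter light over untreated wells divided by growth signal over untreated wells; some hits fall short of that in this replicate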
# Rce1 inhib: inhibitors of yeast Ras-converting enzyme; Q03530; yeast membranes, quenched prenylated peptide cleavage fluorescence; 290,000 tested, 0.27% active; calls only;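 active means fall in fluorescence gain of 50% or more versus controls, with final raw signal at or below 3038400; inconclusive means same 50% fall but final raw signal above 3038400; inactive means fall in fluorescence gain under 50%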;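 further: plate controls were neutral control wells for no effect and wells lacking membranes for full effect; tested at 10 µM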
# Target sequence (Q03530 whole entry, looked up): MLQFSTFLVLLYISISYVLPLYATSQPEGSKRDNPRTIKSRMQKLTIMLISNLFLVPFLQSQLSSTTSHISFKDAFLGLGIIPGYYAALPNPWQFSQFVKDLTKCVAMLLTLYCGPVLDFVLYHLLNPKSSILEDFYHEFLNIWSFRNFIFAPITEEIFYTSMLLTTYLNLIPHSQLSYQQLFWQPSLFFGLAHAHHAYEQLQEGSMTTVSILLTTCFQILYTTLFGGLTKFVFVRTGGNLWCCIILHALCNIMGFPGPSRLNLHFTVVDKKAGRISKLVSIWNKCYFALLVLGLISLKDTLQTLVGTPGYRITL
# eIF4H inh: inhibitors of RNA binding by human eIF4H | eIF4H fluorescence polarization binding assay | inhibition, % at 35 µM | 290,000 tested, 0.94% active | AID 2012;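 active means 50% or more with normal probe brightness, or confirmed in later tests; inconclusive means above 50% with abnormal brightness, or retests that disagree; inactive means below 50% or failed in later tests; about a fifth of its hits are not listed in these tables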;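 further: calls also rest on retests at 20 µM and on dose response follow-up; 0% = protein and probe with vehicle and 100% = probe without protein; strong numbers were not always called active; many hits fall short of the cut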
# PABP polyA inh: PABP-poly(A) binding inhibition. P11940. PABP-poly(A) RNA binding, fluorescence polarization. inhibition, % at 35 µM. 290,000 tested, 1% active. AID 2014;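 active means 50% or more with normal probe brightness, or confirmed in later tests; inconclusive means above 50% with abnormal brightness, or retests that disagree; inactive means below 50% or failed in later tests; about a fifth of its hits are not listed in these tables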;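 further: calls also rest on retests at 20 µM and on dose response follow-up; controls were probe without protein and protein plus probe with vehicle; some compounds called inactive have numbers as strong as hits; many hits fall short of the cut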
# Target sequence (P11940 whole entry, looked up): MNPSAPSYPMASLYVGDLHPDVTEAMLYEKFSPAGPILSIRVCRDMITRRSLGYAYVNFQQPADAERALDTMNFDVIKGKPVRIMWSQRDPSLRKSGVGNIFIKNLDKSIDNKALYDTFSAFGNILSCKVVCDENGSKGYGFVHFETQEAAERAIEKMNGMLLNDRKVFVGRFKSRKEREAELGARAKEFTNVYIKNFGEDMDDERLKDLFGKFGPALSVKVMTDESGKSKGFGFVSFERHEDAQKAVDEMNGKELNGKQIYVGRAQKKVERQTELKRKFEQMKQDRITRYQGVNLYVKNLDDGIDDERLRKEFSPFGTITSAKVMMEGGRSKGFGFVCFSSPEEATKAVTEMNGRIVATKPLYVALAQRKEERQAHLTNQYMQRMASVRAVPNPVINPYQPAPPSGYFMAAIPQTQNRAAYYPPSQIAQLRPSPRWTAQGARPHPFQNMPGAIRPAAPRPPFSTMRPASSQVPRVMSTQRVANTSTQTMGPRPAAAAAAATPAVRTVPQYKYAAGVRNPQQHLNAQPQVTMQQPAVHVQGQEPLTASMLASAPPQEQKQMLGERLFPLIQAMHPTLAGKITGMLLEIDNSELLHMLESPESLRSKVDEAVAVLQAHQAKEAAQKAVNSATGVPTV
# MT1-MMP act inh: blocks activation of human MT1-MMP | P50281 | HT1080 RFP-PRO-GFP cells, GFP/RFP ratio fluorescence, overnight; percent of plate control window, DMSO zero | GFP/RFP ratio change, % at 20 µM | 360,000 tested, 0.061% active | AID 651647;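 active means GFP/RFP ratio change of at least 30% with cell ATP level not reduced by more than half and red fluorescence within 50% of control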; further: strong numbers were not always called active
#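 Test system: HT1080 cells expressing an RFP-PRO-GFP fluorescent reporter construct / Compound dosing: single-point 20 µM compound, 1% DMSO / Schedule: cells overnight before dosing, compound overnight, 37 °C, 5% CO2 / Evaluation: GFP/RFP fluorescence ratio / Control set: DMSO and RFP-L50D-GFP cell wells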
# HIV Env fusion: HIV envelope-mediated fusion inhibition; HeLa-JRFL Env/CEM21 cell fusion, luciferase; inhibition, % at 12.3 µM; 360,000 tested, 1.1% active;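 active means mean replicate inhibition score of at least 50 and every replicate individually at or above 50; inconclusive means only one of the two criteria met; inactive means mean below 50 and not all replicates reaching 50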;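 further: 0% = plate neutral controls and 100% = maraviroc near 300 nM; one replicate is shown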
# eIF4H inh retest: recorded beside eIF4H inh, whose call it bears; inhibition, %; compound at 20 µM; confirmation average;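 mean of two retest wells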
# PABP polyA inh retest: also measured in PABP polyA inh; calls as there; inhibition, %; compound at 20 µM; confirmation repeats;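 mean of two retest wells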
# MT1-MMP act inh RFP: second read-out of MT1-MMP act inh, no call of its own (marks repeat the call); RFP signal change, %; measured here: RFP expression control read;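 0 = vehicle wells; hits needed this value within 50% of zero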
# Starred values were filed as active, the others as inactive; i = inactive; u = inconclusive; x = no result given; & = joins results of further samples.
SMILES,CSC inhib,UUG fidelity,Rce1 inhib,eIF4H inh,PABP polyA inh,MT1-MMP act inh,MT1-MMP act inh RFP,HIV Env fusion,others
Cc1scc(-c2n[nH]c(=S)n2C(C)c2ccccc2)c1C (stereo unspecified),11,3,i,1,2,-5,-5,-12,
CCOC(=O)c1sc(=S)n(-c2ccc(C)cc2)c1SC,-2,-11,i,2,5,7,1,12,
COc1cc(/C=N/NC(=O)c2cc3ccccc3cc2O)ccc1OCCN1CCCCC1,-13,x,i,u,15,-1,4,6,
CCN(C(=O)CSc1nnc(C)c(=O)[nH]1)c1cccc2ccccc12,7,-8,x,x,x,26,2,1,
COc1ccccc1N(CC(=O)Nc1ccc(Cc2ccncc2)cc1)S(=O)(=O)c1ccccc1,33,17,i,-6,4,-4,-10,26,
CN(C)S(=O)(=O)c1ccc(C(=O)OCC(=O)c2ccc3c(c2)NC(=O)CO3)cc1,-21,-10,i,8,-9,7,5,5,
COc1ccc(N2CCN(C(=O)c3cc(C)on3)CC2)cc1,-6,-12,i,-2,0,5,2,x,
CCC(C)c1ccccc1OCCn1ccnc1 (stereo unspecified),-6,x,i,3,-3,4,-4,-3,
O=C(CSc1ccccc1)N1CCCC(Nc2ccccc2)C1 (stereo unspecified),-5,-4,i,-14,2,-2,-2,8,
COc1ccccc1/C=C\C=N\n1c(-c2ccc(Cl)cc2)n[nH]c1=S,4,x,i,7,-10,0,1,4,
CC1(C)CNC(=O)CC(C)(C)N1,-2,-17,x,-3,-8,3,8,1,
CC(C)COc1ccc(C(=O)OCC(=O)NCc2cccs2)cc1,x,1,x,x,x,8,-3,-121,
O=C(N/N=C/c1ccc(OCc2ccc(F)cc2)cc1)c1ccccc1,4,x,x,13,13,-1,1,0,
CC(C)NS(=O)(=O)c1ccc2c(c1)NCC2,-2,x,i,-13,-7,-1,3,-1,
[O-][n+]1c2c(nn1-c1ccccc1Cl)-c1nonc1CC2,14,-4,i,2,8,-1,-2,-20,
Cc1cc(C)cc(C(=O)NCCn2cc(SCC(=O)N3CCOCC3)c3ccccc32)c1,8,21,i,-6,-13,2,-4,-27,
Cc1cnc(C(=O)OC(C(=O)Nc2cc(C(F)(F)F)ccc2Cl)c2ccccc2)cn1 (stereo unspecified),-2,-6,i,-1,-2,0,1,x,
CNc1nc(OCC(F)(F)F)nc(OCC(F)(F)F)n1,-7,-17,i,x,x,-3,-2,-4,
O=C(O)c1cc(S(=O)(=O)N2CCN(C(=O)c3ccco3)CC2)c(Cl)cc1Cl,0,25,i,0,10,-1,0,-2,
O=C(c1ccco1)N1N=C(c2ccc(Br)cc2)CC1(O)C(F)(F)F (stereo unspecified),0,x,i,-9,-2,0,-3,27,
Cc1ccccc1Nc1nc(N)nc(CSc2nnc(-c3ccccc3)n2C)n1,3,-3,i,11,6,0,4,x,
O=C(CCCC(=O)N(CC(=O)NC1CCCC1)Cc1ccc2c(c1)OCO2)Nc1ccccn1,-26,1,i,-7,12,1,6,x,
C[C@@H]1CN([C@H](C)CO)C(=O)Cc2cc(NS(=O)(=O)c3cn(C)cn3)ccc2O[C@H]1CN(C)S(=O)(=O)c1ccc(Cl)cc1,x,4,x,x,x,1,9,-355,
CCOC(=O)C1CCN(C(=O)Nc2ccc3nccnc3c2)CC1,-8,-15,i,6,3,-3,-1,x,
COc1cccc(C2CC(c3ccc(C)cc3)n3ncnc3N2)c1 (stereo unspecified),x,-4,i,0,-16,1,0,-50,
CCc1ccccc1NS(=O)(=O)c1ccc(SC)cc1,6,9,i,-4,3,-2,-7,x,
COc1ccc(N(C)S(=O)(=O)c2cccc(C(=O)NC3CCCCCC3)c2)cc1,-3,x,i,-8,-3,-17,-17,7,
S=C1CCSc2ccc(Cl)cc2N1,x,-6,i,-4,-6,4,9,35,
COc1ccc(CNC(=O)CSc2nnc(C(F)(F)F)n2C)cc1,1,x,i,2,-11,0,6,19,
NC(=O)Nc1ccc(C(=O)OCC(=O)N2CCc3ccccc3C2)cc1,x,-16,x,x,x,1,0,-13,
NC(=O)c1ccc(-n2nnnc2SCC(=O)Nc2ccc(N3CCOCC3)c(Cl)c2)cc1,-2,-8,i,-12,-11,4,1,x,
Cc1c(O)cc2n(c1=O)-c1ccc(Cl)cc1C2(C)C,x,-12,i,1,2,-1,-11,-25,
C=CCn1c(C)cc(C(=O)CSc2ccc(NC(C)=O)cc2)c1C,-2,0,i,-7,-7,6,1,x,
CCCc1[nH]nc2c1C1(C(=O)N(CC)c3ccccc31)C(C#N)=C(N)O2 (stereo unspecified),-6,-13,i,0,6,-2,-1,x,
CCn1c(N)c(C(=O)NCCCOC)sc1=S,-11,-5,i,1,4,1,1,x,
O=c1[nH]c(SCc2ccccc2)nnc1-c1ccccc1,-8,-11,i,-13,62,7,7,-61,eIF4H inh retest=-4;PABP polyA inh retest=-3
COc1ccc(-c2ccc(-c3noc(-c4ccco4)n3)c(OC)n2)cc1,-8,-18,i,9,-5,-4,2,-72,
COc1ccc(C2C3=C(CC(C)(C)CC3=O)Oc3ncn(Cc4ccco4)c(=N)c32)cc1 (stereo unspecified),11,-1,i,-5,-4,-5,-4,25,
O=C(Nc1ccccn1)c1ccc2c(=O)n3c(nc2c1)CCCCC3,10,0,x,x,x,0,-7,x,
CC(=O)Nc1ccc(S(=O)(=O)N=S(C)C)cc1,-9,-17,i,7&-15,-8&-5,-3,4,x,
Cc1cc(C)c(S(=O)(=O)N2CCN(C(=O)N(C)C)CC2)c(C)c1,-4,x,i,33,24,7,-1,-6,
S=C(Nc1ccc2c(c1)OCCO2)Nc1ccc2c(c1)OCO2,-2,x,i,4,-8,-3,-1,-31,
COc1cc(OC)cc(C(=O)Nc2ccccc2C(=O)NCc2cccnc2)c1,x,-15,i,-10,0,-5,-3,1,
CNC(=S)N1C2CCC1CC(NC(=O)NC13CC4CC(CC(C4)C1)C3)C2 (stereo unspecified),2,-17,i,-8,4,3,4,18,
CCC1(CC)C(=O)C2=C3C1[C@H](C(=O)OC)C=C(C(=O)OC)C[C@H]3[C@H]1C(=O)NC(=O)[C@H]1[C@H]2C (stereo partly specified),-4,5,i,x,x,-2,3,18,
O=C(COc1ccc(S(=O)(=O)N2CCCC2)cc1)NCCC1=CCCCC1,1,-21,i,14,7,1,-5,x,
O=C(C[n+]1ccccc1)N/N=C/c1ccco1,-16,x,i,-4,-2,-1,4,18,
COc1cccc(CNS(=O)(=O)c2ccc3c(c2)CCN3C(=O)C2CC2)c1,6,x,i,4,36,3,-4,-3,
COc1ccc(/C=C/C(=O)c2ccc(NC(=O)c3cccs3)cc2)cc1OC,35,x,i,-5,0,2,2,11,
CC1(c2ccc(Cl)cc2Cl)NC(=O)N(CC(=O)Nc2ccc3[nH]c(=O)[nH]c3c2)C1=O (stereo unspecified),-17,x,x,x,x,2,4,-17,
CCOC(=O)Nc1ccc(S(=O)(=O)Nc2onc(C)c2C)cc1,6,-14,i,x,x,1,3,7,
CCOC(=O)c1c2ccc(OCC(=O)NN)cc2n2ccccc12,38,x,i,10,0,-6,-1,5,
CC1=C(C(=O)N2CCOCC2)CC(CC(=O)NC2CCCCC2)C(=O)N1Cc1ccc(C(C)(C)C)cc1 (stereo unspecified),x,14,x,x,x,2,3,-9,
CC1(C(=O)NC2CCc3ccccc32)CCN1CCc1ccccc1 (stereo unspecified),x,-4,x,x,x,-3,-3,u,
CCOc1ccccc1N1CCN(C(=O)C(F)(F)F)CC1,1,-13,i,0,0,-3,4,x,
CC1CCC(N2CC(=O)N(Cc3ccc4c(c3)OCO4)C(c3ccc(F)cc3)C2=O)CC1 (stereo unspecified),x,-9,i,-11,4,-14,-11,53,
CCN(Cc1ccc(Br)s1)C(=O)CSc1nnc(C2CC2)n1C1CC1,x,-14,x,x,x,-4,2,-10,
CC1(C(=O)NS(=O)(=O)c2cccc(F)c2)CCN1C(=O)Cc1ccccc1 (stereo unspecified),x,-14,x,x,x,0,4,2,
Cc1ccc(NC(=O)c2cccnc2C(=O)Nc2ccc(C)cc2)cc1,3,x,i,4.0*,78,-6,1,9,eIF4H inh retest=66*;PABP polyA inh retest=36
CCOc1ccc(C(=O)Nc2ccc(Cc3ccncc3)cc2)cc1Br,-2,x,i,0,-3,4,-2,-13,

# Other compounds:
SMILES,CSC inhib,UUG fidelity,Rce1 inhib,eIF4H inh,PABP polyA inh,MT1-MMP act inh,MT1-MMP act inh RFP,HIV Env fusion,others
O=C(NNc1ccccc1)C(=O)NNc1ccccc1,x,6,x,x,x,-2,6,-38,
CCCCOP(=O)(OCCCC)C1(C)CC(=O)CC(C)(C)C1 (stereo unspecified),x,13,x,x,x,0,1,11,
COc1ccc(C)cc1N(C)C(=O)c1coc(=O)c2ccccc12,-9,2,i,4,4,5,-4,-6,
CC(C)C[C@@H]1NC(=O)N(CCN2CCOCC2)C1=O,15,-7,i,12,-8,-4,1,x,
COc1ccc(C(CNC(=O)c2oc3ccc(C)cc3c2C)N2CCCCC2)cc1 (stereo unspecified),x,-33,i,-2,-1,2,-2,-2,
O=C(CN1CCCCCC1)Nc1cc([N+](=O)[O-])ccc1Cl,0,24,i,1,5,4,0,5,
O=C(Cc1ccc(S(=O)(=O)N2CCOCC2)s1)NCC1CCCCC1,-14,-18,i,16,15,-2,2,x,
O=C(CSc1ncn[nH]1)Nc1ccc([N+](=O)[O-])cc1Br,-10,x,i,-9,12,-3,-8,-14,
Cc1cccc(NC(=O)CSc2ncnc3c2oc2ccccc23)c1,-9,-14,i,6,0,3,-1,13,
C=CCNC(=S)Nc1c(N)n(C)c(=O)n(C)c1=O,-3,21,i,-11,-1,-1,-2,8,
COc1cc(S(=O)(=O)N2CCN(C(=O)c3ccco3)CC2)c(OC)cc1C,-7,-8,i,4,-6,0,0,-3,
O=C(Nc1ccccc1)c1csc(-c2ccccc2)n1,-2,x,i,-5,-1,0,2,4,
O=C(CCNS(=O)(=O)c1ccc(Br)cc1)NCCCSc1ccccc1,-14,-17,x,x,x,-3,-3,x,
COc1cccc(S(=O)(=O)NCC(=O)N2CCCCCC2)c1,-14,-7,i,-3,5,3,-2,25,
O=C(CN(c1ccc(Cl)cc1)S(=O)(=O)c1ccccc1)N1CCN(c2ccccc2)CC1,3,-3,x,0,0,7,-1,-22,
CCOc1cc(CNc2ccc3c(c2)OCCO3)cc(Br)c1OCC,54,-59,i,-2,-4,12,0,x,
COc1ccc(-c2nc(CN3CCN(c4cc(C)nc(C)c4)CC3)c(C)o2)c2ccccc12,-12,-6,u,-10,3,1,-4,12,
CCN(CC(=O)NC1CCS(=O)(=O)C1)S(=O)(=O)c1ccc(Cl)c(C(F)(F)F)c1 (stereo unspecified),x,-1,x,x,x,-2,-1,2,
Cc1cc(C)n2nc(C(=O)OCC(=O)NNC(=O)c3ccccc3)nc2n1,3,-9,x,x,x,1,4,x,
CCc1ccc(N2CC(C(=O)NCC(C)(C)N3CCOCC3)CC2=O)cc1 (stereo unspecified),x,-15,x,x,x,0,-2,-2,
COC(=O)Cc1ccc(OC2(C)CCN(Cc3ccc(-c4ccccn4)cc3)C2)cc1 (stereo unspecified),x,-1,x,x,x,-3,-6,-16,

# This is a random part of the collection; 3% or so of the library scored in one or more.
